KCNQ2 block: KCNQ2 channel blockers in CHO-K1 cells – cell-based, FluxOR thallium flux, B-score, primary screen (AID 2156); B-score at 10 µM; O88943; 20 min; stronger effect = lower value; only compounds with negative scores are shown here; some inactives read as strong as hits; 310,000 compounds, 1.1% hits;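 active = fluorescence ratio B-score at most minus 3 library SDs, with starting brightness B-score within 2 library SDs, cut at about -5.5 in these data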
Target sequence (O88943 whole entry, looked up): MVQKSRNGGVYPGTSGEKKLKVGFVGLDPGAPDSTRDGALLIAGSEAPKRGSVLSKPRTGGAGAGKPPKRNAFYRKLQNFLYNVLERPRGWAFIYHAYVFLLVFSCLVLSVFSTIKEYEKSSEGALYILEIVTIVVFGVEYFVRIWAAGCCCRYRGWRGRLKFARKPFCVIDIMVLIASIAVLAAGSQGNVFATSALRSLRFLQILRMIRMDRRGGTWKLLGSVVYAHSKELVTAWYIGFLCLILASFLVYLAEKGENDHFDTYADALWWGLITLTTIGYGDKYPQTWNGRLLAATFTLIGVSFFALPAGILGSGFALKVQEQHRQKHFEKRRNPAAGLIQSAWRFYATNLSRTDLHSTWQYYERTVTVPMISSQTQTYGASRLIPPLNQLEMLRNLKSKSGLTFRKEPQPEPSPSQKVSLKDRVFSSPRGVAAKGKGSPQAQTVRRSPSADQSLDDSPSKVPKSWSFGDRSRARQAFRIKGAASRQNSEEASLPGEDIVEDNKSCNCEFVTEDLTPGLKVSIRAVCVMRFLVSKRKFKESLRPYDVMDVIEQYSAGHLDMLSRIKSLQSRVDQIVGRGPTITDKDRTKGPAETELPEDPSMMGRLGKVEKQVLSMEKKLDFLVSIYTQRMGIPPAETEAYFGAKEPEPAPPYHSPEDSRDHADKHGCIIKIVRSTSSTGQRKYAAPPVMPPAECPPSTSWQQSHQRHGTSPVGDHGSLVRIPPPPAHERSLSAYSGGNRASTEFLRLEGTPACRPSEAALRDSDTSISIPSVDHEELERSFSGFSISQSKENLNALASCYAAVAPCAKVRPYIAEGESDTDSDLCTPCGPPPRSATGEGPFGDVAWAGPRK
KCNQ2 block baseline: also measured in KCNQ2 block; calls as there; B-score; measured here: initial fluorescence intensity artifact check;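 brightness before thallium and not channel activity; 0 = typical well and far values either way flag optical interference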
Numbers without * were called inactive; i = inactive. Not all compounds are listed, so the mix of outcomes need not match the whole.

SMILES | KCNQ2 block | KCNQ2 block baseline
Cc1c(N=C2SCC(=O)N2/N=C/c2ccccc2)c(=O)n(-c2ccccc2)n1C | i | -0.05
CC(C)C(C)(C#N)NC(=O)CSc1nnc(-c2ccccc2)o1 (stereo not given) | i | 1.8
CCC(=O)Nc1nc(NCc2ccccc2OC)n(-c2ccccc2)n1 | i | 1.2
O=C(Nc1c2c(nn1-c1ccc(F)cc1)CS(=O)(=O)C2)c1ccc2c(c1)OCO2 | i | -0.36
O=C(c1cccs1)N1CCCC(c2nc(-c3ccc(F)cc3)no2)C1 (stereo not given) | i | -1.6
CC(C)(C)NC(=O)CN(C(=O)CNC(=O)c1cccs1)c1ccc2c(c1)OCCO2 | i | 0.59
Cc1nc(SCc2ccccc2)[nH]c(=O)c1CC(=O)OCC(C)C | i | -0.18
COc1ccc(Cl)cc1NC(=O)CN1CCc2ccccc21 | i | 0.24
CN(C)c1nn(C(=O)Nc2ccc(Cl)cc2Cl)cc1-c1ccccc1 | i | -0.62
O=c1[nH]c2cc3c(cc2cc1CN(CCO)S(=O)(=O)c1ccccc1)OCCO3 | i | -1.5
O=C(CCNC(=O)c1ccc([N+](=O)[O-])cc1)NCCc1ccc(Cl)cc1 | i | -0.65
O=C(Cn1cc(/C=N/NC(=O)c2cccc3ccccc23)c2ccccc21)Nc1ccc(F)cc1 | i | -0.24
N#Cc1ccccc1N/C=C/C(=O)c1ccc(Cl)cc1 | i | 0.16
CCNc1nc(OC)nc(Oc2ccc(C(=O)OC)cc2)n1 | i | 0.53
Cc1ccc(S(=O)(=O)N2CCN(Cc3ccccc3)CC2)c(C)c1N(C)S(=O)(=O)c1ccccc1 | i | 0.04
Cc1ccc(NC(=O)CCNC(=O)Cn2ccc3ccccc3c2=O)cc1F | i | 0.06
CCCCN1C(=O)C(=O)N(CC(=O)N2N=C3/C(=C/c4ccco4)CCCC3C2c2ccco2)C1=O (stereo not given) | i | 1.4
O=C(Nc1ccc(Cl)cc1)c1ccc(OCC2CCCO2)cc1 (stereo not given) | i | 1.2
CC(C)(C)c1ccc(NC(=O)CNC2CCCc3ccccc32)cc1 (stereo not given) | -6.9* | 0.04*
O=C(c1ccc(Cl)cc1)N1CCCCC(Sc2nnc(-c3ccc4c(c3)OCO4)o2)C1=O (stereo not given) | i | -0.77
O=C(N/N=C/c1cccnc1)c1cc2c(ccc3ccccc32)o1 | i | -0.78
COC(=O)c1c[nH]n2c(=O)c(Cl)c(C)nc12 | i | 1.6
CO/N=C/c1ccc(Oc2ccc(C)cc2)nc1 | i | -0.04
COc1ccc(/C=C/C(=O)c2nc3ccccc3n2CC(=O)c2ccc(OC)cc2)cc1 | i | 1.4
Cc1nc2c(ncn2-c2ccccc2)c(=O)n1NC(=O)CN1CCOCC1 | i | 0.31
O=C(NC(c1ccccc1)C(Cl)(Cl)Cl)c1ccccc1 (stereo not given) | i | 1.5
CCOC(=O)c1ccc(NC(=O)Cn2ncc(Cl)c(Cl)c2=O)cc1 | i | 0.46
Cc1sc(NC(=O)CN2CCOCC2)nc1-c1ccc2c(c1)CCN2S(=O)(=O)c1ccccc1 | i | -0.55
Cc1ccc(NC(=O)c2cccc(OCc3c(C)noc3C)c2)c(C)c1 | i | -0.08
N#Cc1nc(Cc2cccc3ccccc23)oc1NCCCN1CCOCC1 | i | -0.68
CCCCOP(=O)(OCCCC)C(Nc1ccc(C(=O)OCC)cc1)c1ccncc1 (stereo not given) | -5.7* | -2.4*
CC(C)CNC(=O)c1cccc(NC(=O)CSc2ccc(Cl)cc2)c1 | i | 0.78
O=C(COc1ccccc1)Nc1nnc(C23CC4CC(CC(C4)C2)C3)s1 | i | 0.4
CC(=O)N1c2ccccc2C(C)(c2ccccc2)CC1(C)C (stereo not given) | i | 0.25
Cc1cc(NC(=O)CSc2nc3c([nH]c4ccccc43)c(=O)n2-c2ccccc2F)no1 | i | 0.02
COc1ccc(Cl)cc1Nc1nc(-c2sc(NC(=O)c3ccco3)nc2C)cs1 | i | 1.1
Cc1ccc(S(=O)(=O)CC(c2ccccc2)N2CCOCC2)cc1 (stereo not given) | i | -0.48
CC(=O)Nc1ccc(SCC(=O)c2cc(C)n(CC(F)(F)F)c2C)cc1 | i | 1
COc1ccc(-c2cc(C(F)(F)F)n3ncc(C(=O)N(C)Cc4ccccc4)c3n2)cc1 | i | 0.41
C=CCn1c(C)nnc1SCC(=O)N1CCN(S(=O)(=O)c2ccccc2)CC1 | i | 0.66

An excerpt of these results, with two lines to a compound:
Values run as follows: KCNQ2 block | KCNQ2 block baseline
CO/N=C/c1ccc(Oc2ccc(C)cc2)nc1
 : i | -0.04
COc1ccc(/C=C/C(=O)c2nc3ccccc3n2CC(=O)c2ccc(OC)cc2)cc1
 : i | 1.4
Cc1nc2c(ncn2-c2ccccc2)c(=O)n1NC(=O)CN1CCOCC1
 : i | 0.31
O=C(NC(c1ccccc1)C(Cl)(Cl)Cl)c1ccccc1 (stereo not given)
 : i | 1.5

Filtered by structure: the entries above containing a Cl atom
SMILES | KCNQ2 block | KCNQ2 block baseline
COc1ccc(Cl)cc1NC(=O)CN1CCc2ccccc21 | i | 0.24
CN(C)c1nn(C(=O)Nc2ccc(Cl)cc2Cl)cc1-c1ccccc1 | i | -0.62
O=C(CCNC(=O)c1ccc([N+](=O)[O-])cc1)NCCc1ccc(Cl)cc1 | i | -0.65
N#Cc1ccccc1N/C=C/C(=O)c1ccc(Cl)cc1 | i | 0.16
O=C(Nc1ccc(Cl)cc1)c1ccc(OCC2CCCO2)cc1 (stereo not given) | i | 1.2
O=C(c1ccc(Cl)cc1)N1CCCCC(Sc2nnc(-c3ccc4c(c3)OCO4)o2)C1=O (stereo not given) | i | -0.77
COC(=O)c1c[nH]n2c(=O)c(Cl)c(C)nc12 | i | 1.6
O=C(NC(c1ccccc1)C(Cl)(Cl)Cl)c1ccccc1 (stereo not given) | i | 1.5
CCOC(=O)c1ccc(NC(=O)Cn2ncc(Cl)c(Cl)c2=O)cc1 | i | 0.46
CC(C)CNC(=O)c1cccc(NC(=O)CSc2ccc(Cl)cc2)c1 | i | 0.78
COc1ccc(Cl)cc1Nc1nc(-c2sc(NC(=O)c3ccco3)nc2C)cs1 | i | 1.1

Remaining list, next part:
SMILES | KCNQ2 block | KCNQ2 block baseline
CCN(CC)c1ccc(/C=N/NC(=O)c2ccco2)c(O)c1 | i | -0.17
O=C1Nc2ccccc2N2CCCC12 (stereo not given) | i | 0.02
CNC(=O)c1ccsc1NC(=O)c1ccc2c(c1)CCCC2 | i | -0.05
Cc1ccc(NC(=O)CN(C)C(=O)COc2cc(F)ccc2[N+](=O)[O-])cc1 | i | 1.4
O=c1c2c([nH]c3ccccc13)CCCC2 | i | -0.16
O=C1c2cccc(OCc3ccc(F)cc3)c2CCN1Cc1ccccc1 | -6.5* | -0.22*
CN(C)S(=O)(=O)c1ccc2c(c1)nc(CCC(=O)NCCc1ccc(Cl)cc1)n2C | i | -0.58
O=C(CC1(O)C(=O)N(Cc2ccccc2)c2ccccc21)c1ccncc1 (stereo not given) | i | -0.95
C=CCN(C(=O)CSc1nc2c(sc3ccccc32)c(=O)n1CCN(CC)CC)c1ccccc1 | i | -2.9
Cc1cc(C)nc(S/C=C/C(=O)c2ccccc2F)n1 | i | 0.02
N#Cc1c(NC(=O)CSc2nnnn2C2CCCC2)sc2c1CCCC2 | i | -0.88
O=C1CC2(CCN(C(=O)c3cccc(Cl)c3)CC2)Oc2ccccc21 | i | 3.6
CCN(Cc1ccncc1)C(=O)C1CCN(S(=O)(=O)c2cccs2)CC1 | i | 0.44
C(=N/Nc1nccs1)/c1cccnc1 | i | 1.7
COc1ccc(C2=NOC(C(=O)NCCN3CCOCC3)C2)cc1 (stereo not given) | i | -0.08
O=c1c2c3nc4ccccc4nc3n(/N=C/c3ccco3)c2ncn1CCC1=CCCCC1 | -6.6* | -0.29*
CC1Nc2ncnc(N3CCc4ccccc4C3)c2N(Cc2ccc(Cl)cc2)C1=O (stereo not given) | i | -0.85
COCC(C)Nc1nc(C)c(C(C)=O)s1 (stereo not given) | i | 1.2
COc1ccc(N2CC(C)Cn3c2nc2c3c(=O)n(Cc3ccc(C)cc3)c(=O)n2C)c(OC)c1 (stereo not given) | i | 0.3
CCCCOC(=O)C1CCCC(C)N1 (stereo not given) | i | -0.82
O=C(NNC(=O)c1ccc(F)cc1F)c1ccc2c(c1)OCO2 | i | 0.95
Cc1ccc(C(=O)O/N=C(\N)Cc2cccs2)c(Cl)c1 | i | -0.89
CCc1nc(N2CCN(C(C)=O)CC2)c(C#N)c2c1COC(C)(C)C2 | i | -0.27
CCN(CC(=O)Nc1c(F)cccc1F)C(=O)C1(c2ccccc2)CC1 | i | -0.77
Cc1ccsc1/C=N/n1cnnc1 | i | 1.2
CCOc1ccc(NC(=O)Nc2cc(-c3ccccc3)sc2C(=O)OC)cc1 | i | 0.84
O=S(=O)(Nc1ccccc1C(F)(F)F)c1ccc(-c2ccccn2)s1 | i | -2.3
COc1cccc(CN2CCN(Cc3cc(OC)c(OC)c(OC)c3)CC2)c1OC | i | 1.9
O=C(OCc1ccc(F)cc1)c1ccc2c(c1)-c1ccccc1C2=O | i | 0.36
O=C(Nc1ccccc1N1CCCC1)c1ccc2ccccc2c1 | i | 1.5
CN(C)S(=O)(=O)c1ccc(C(=O)NCC(c2cccs2)N2CCOCC2)cc1 (stereo not given) | i | -0.2
Cc1ccc(NC(=O)N(Cc2cc3cc(C)cc(C)c3[nH]c2=O)CC2COCCO2)cc1 (stereo not given) | i | -0.63
O=C(NCC(c1ccco1)N1CCN(c2ccc(F)cc2)CC1)C(=O)NC1CCCCC1 (stereo not given) | i | 0.37
CCC(c1nnnn1Cc1ccc(OC)cc1)N1CCN(C(=O)c2ccco2)CC1 (stereo not given) | i | -0.93
COc1ccc(CCC(=O)N2CCCSC2=Nc2ccc(C(C)=O)cc2)cc1 | i | 0.13
CCOc1cc(/C=N/n2cnnc2)ccc1OCC(=O)Nc1ccccc1OC | i | -0.42
CC1CCC(NC(=O)C2CCC(CNc3c(N4CCCCC4)c(=O)c3=O)CC2)CC1 (stereo not given) | i | -0.26
CCn1c(COc2ccc3c(c2)CCCC3)nnc1SCC(=O)Nc1ccc(C(=O)OC)cc1 | i | -0.69
CCc1ccc(NC(=O)CSc2nc3ccccc3c(=O)n2CCN2CCOCC2)cc1 | i | -0.01
CC(=O)Oc1ccc(C)cc1-n1nc2ccccc2n1 | i | 0.11
O=C(Nc1ccccc1F)c1ccccc1-c1ccccc1 | i | 2
Cc1cc(NC(=O)Nc2ccc3c(ccn3C)c2)sn1 | i | 0.17
Cc1c(NC(=O)C(C)OC(=O)C23CC4CC(CC(Br)(C4)C2)C3)c(=O)n(-c2ccccc2)n1C (stereo not given) | i | -1.7
CCCN1C(=O)C2(SC(NC(C)=O)=NN2C(C)=O)c2cc(C)cc(C)c21 (stereo not given) | i | -1
Cc1cc(C(=O)N2CCCC(N3CCN(c4cccc(C(F)(F)F)c4)CC3)C2)nn1C (stereo not given) | i | -2
O=S(N1CCCCCC1)C12CC3CC(CC(C3)C1)C2 (stereo not given) | i | -0.65
Cc1ccc(-c2csc(Nc3ccccc3)[n+]2CCc2ccccc2)cc1 | i | -1.6
C=CCn1c(O)c(N=O)c2cc(C)ccc21 | i | 6.2
N#Cc1nc(Cc2ccccc2)oc1NCc1cccnc1 | i | 0.67
COc1ccc(C(c2nnnn2CC2CCCO2)N2CCN(c3ccc(F)cc3)CC2)cc1 (stereo not given) | i | 0.43
COc1ccc2cc(/C(C)=N/NC(=S)Nc3cc(S(=O)(=O)N4CCOCC4)ccc3N3CCOCC3)ccc2c1 | i | 1
COc1ccc(-c2csc(N(CCCN3CCOCC3)C(=O)CCl)n2)cc1 | i | 2.4
O=C1c2ccccc2C(O)N1CCN1CCOCC1 (stereo not given) | i | -0.68
Cc1cccc(C)c1-n1ncc(C(=O)NC2CCCC2)c1C1CCNCC1 | i | 0.68
Cc1ccc(CS(=O)(=O)Cc2ccc(C(=O)NCc3cccs3)o2)cc1 | i | -0.67
CCCC(C(=O)NCc1ccco1)N(Cc1ccco1)C(=O)CNS(=O)(=O)c1ccccc1 (stereo not given) | i | 0.71
O=S(=O)(c1cnc[nH]1)N1CCN(C(c2ccc(F)cc2)c2ccc(F)cc2)CC1 | i | 0.27
CC(C)[C@H]1C=C(C(=O)O)O[C@@H](OCCCCO)C1 | i | -0.39
O=C(CCCOc1ccc(Cl)cc1Cl)N/N=C/c1ccccc1 | i | 2.3
O=C(NCc1ccco1)c1ccc2c(c1)C(=O)c1ccccc1-2 | i | -0.87
Next part
SMILES | KCNQ2 block | KCNQ2 block baseline
CCOc1ccc2cc(C#N)c(SCC(=O)OC)nc2c1 | i | -0.17
CC(C)Nc1nc(NC(C)C)nc(OCCOC(=O)Nc2ccccc2)n1 | i | 0.14
COc1ccc(C(=O)Nc2ccc(N3CCCC3)cc2)cc1OC | i | 0.33
Cc1ccc(C(C(=O)NC2CCCCC2)N(C(=O)Cc2c[nH]c3ccccc23)c2ccccc2C)o1 (stereo not given) | i | -0.07
COc1ccc(N(CC(=O)Nc2cccc(C)c2C)S(=O)(=O)c2c(C)n[nH]c2C)cc1 | i | -0.75
CCOC(=O)c1oc2nc(C)c3c(c2c1N)CC(C)(C)OC3 | i | 1.9
CC(CNC(=O)C(=O)NC(C)CCc1ccccc1)Cc1ccccc1 (stereo not given) | i | 1
CNc1cnn(-c2ccc(C)cc2)c(=O)c1Cl | i | -0.91
Cc1ccc(CN2CCN(Cc3ccc4cc(F)ccc4n3)CC2CCO)o1 (stereo not given) | i | -0.71
O=C(COc1ccc(Cl)cc1)N1CCN(S(=O)(=O)c2ccccc2)CC1 | i | 0.07
CCCn1c(=O)n(C)c(=O)c2c(SCc3cc(C(C)=O)ccc3OCC)nc(C3CC3)nc21 | i | 1.8
Cc1cc(C)nc(N2CCCC(C(=O)NCc3cccs3)C2)n1 (stereo not given) | i | -0.4
Cc1ccc2c(c1)N(C(C)C(=O)NCCc1ccccc1)C(=O)CO2 (stereo not given) | i | 0.26
O=C(Nc1ccc(Cl)cn1)c1ccc2ccccc2n1 | i | -2

Compound activity from PubChem BioAssay.
